# T cruzi inh = T. cruzi replication inhibition | T. cruzi beta-gal in NIH3T3, luminescence, 90 h | inhibition, % (test concentration not listed) | hit rate 1.4% among 300,000;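 active = mean inhibition across valid replicates above about 55%, limit read from the data; inconclusive = mean below that limit but half or more replicates reach it; inactive = mean below it, under half of replicates reach it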;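 also: signal also drops with host cell toxicity which is not excluded here; 0% = plate median of DMSO wells and 100% = zero luminescence signal; higher percent means less beta-gal luminescence so fewer parasites; stock transfer was 50 nL into about 50 µL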
# A1 inh = inhibitors of the anti-apoptotic protein A1, read as caspase activation; MEF A1-2A-BIM cells, Caspase-Glo 3/7 luminescence, 3 h; percent of clofoctol response, vehicle zero; caspase activation, % (no concentration beside the values); hit rate 0.066% among 330,000;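 active = over half of replicate activation scores above 10%, or exactly half above 10 with the replicate mean above 10; inconclusive = replicate mean below 10 yet half the replicates above 10; inactive = over half of replicates below 10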;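 also: wells of about 30 µL received 50 nL stock; many hits fall short of the cut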
# Beta apoptosis = beta cell apoptosis inhibition; AID 435005; INS-1E cytokine-induced death, ATP luminescence, 48 h; percent of positive-control rescue, neutral wells zero; protection from apoptosis, % (no concentration beside the values); hit rate 0.8% among 300,000;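 active = all replicates at 75% or more, or half of them and the mean; inconclusive = half reach 75% but not the mean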;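 also: 0% = cytokine-treated negative control wells and 100% = positive control rescue; higher means more ATP so stronger rescue from cytokine killing; wells of about 40 µL received 100 nL stock; the first replicate is given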
# LANA-H2A inh = blocks KSHV LANA binding to histone H2A/H2B. cell-free LANA-H2A/H2B peptide, fluorescence polarization. Q9QR71. hit rate 0.6% among 320,000. inhibition, % (test concentration not listed); in the data active = inhibition mostly above about 10%, no sharp cut-off; inactive = mostly below about 6.7%;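 also: stock transfer was 7.5 nL into about 10 µL; 0% = median of vehicle wells and 100% = median of positive control wells; one replicate is shown; the record names a cut of 25% in any replicate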
# Target sequence (Q9QR71 whole entry, looked up): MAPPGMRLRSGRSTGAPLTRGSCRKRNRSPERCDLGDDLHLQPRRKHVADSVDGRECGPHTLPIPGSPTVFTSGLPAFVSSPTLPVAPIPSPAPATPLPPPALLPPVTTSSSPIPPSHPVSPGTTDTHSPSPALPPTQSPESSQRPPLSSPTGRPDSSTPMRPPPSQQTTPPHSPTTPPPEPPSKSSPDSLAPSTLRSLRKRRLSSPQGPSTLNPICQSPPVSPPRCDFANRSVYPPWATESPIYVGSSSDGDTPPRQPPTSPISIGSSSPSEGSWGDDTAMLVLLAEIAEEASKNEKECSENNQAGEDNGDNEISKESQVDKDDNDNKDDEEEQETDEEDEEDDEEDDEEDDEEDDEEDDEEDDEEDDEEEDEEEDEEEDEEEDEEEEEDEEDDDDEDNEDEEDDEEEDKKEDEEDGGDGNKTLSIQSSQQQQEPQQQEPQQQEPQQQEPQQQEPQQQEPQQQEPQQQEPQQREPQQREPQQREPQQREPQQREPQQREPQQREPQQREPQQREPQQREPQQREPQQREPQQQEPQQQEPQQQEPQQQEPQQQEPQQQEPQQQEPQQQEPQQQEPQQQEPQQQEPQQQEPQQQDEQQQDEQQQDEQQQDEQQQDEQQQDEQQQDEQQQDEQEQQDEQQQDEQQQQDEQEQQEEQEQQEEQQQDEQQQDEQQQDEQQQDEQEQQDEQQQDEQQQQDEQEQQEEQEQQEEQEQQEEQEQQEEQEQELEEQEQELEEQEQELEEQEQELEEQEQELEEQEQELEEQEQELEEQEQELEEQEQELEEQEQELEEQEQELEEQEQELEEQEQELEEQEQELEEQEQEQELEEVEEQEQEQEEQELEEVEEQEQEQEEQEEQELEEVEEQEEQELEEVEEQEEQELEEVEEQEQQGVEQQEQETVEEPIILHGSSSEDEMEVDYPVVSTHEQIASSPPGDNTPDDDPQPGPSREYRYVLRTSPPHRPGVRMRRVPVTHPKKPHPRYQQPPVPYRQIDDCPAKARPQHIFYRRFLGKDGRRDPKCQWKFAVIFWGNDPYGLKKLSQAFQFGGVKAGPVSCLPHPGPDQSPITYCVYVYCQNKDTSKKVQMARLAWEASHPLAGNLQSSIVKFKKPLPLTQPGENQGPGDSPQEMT
# RanGTP-Impb inh = disruptors of Ran-importin-beta complex formation – biochemical, FRET, CFP-Ran, YFP-importin-beta, homogeneous, primary screen; AID 2216; cell-free CFP-Ran/YFP-importin-beta FRET ratio; hit rate 1.1% among 300,000; inhibition, % (test concentration not listed);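 active = most replicates above 15%; inconclusive = exactly half above 15%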;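 also: 0% = DMSO wells and 100% = Ran loaded with GDP instead of GTP; wells of about 40 µL received 100 nL stock; the first replicate is given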
# Vif A3G = HIV-1 Vif–A3G interaction blockers – biochemical, TR-FRET, GST-Vif 1-94, biotin-A3G peptide, dose response retest, primary screen (AID 1117319) | TR-FRET GST-Vif / biotin-A3G peptide binding; higher % means a stronger effect; test concentration not given here; strong numbers were not always called active | one-dose inhibition, %; IC50 in µM for titrated hits | hit rate 0.57% among 260,000;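 active = above the screen mean plus three standard deviations and confirmed in dose response; inconclusive = results disagree or hit not tested in dose response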;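 also: Vif residues 1-94 fused to GST binding biotinylated APOBEC3G peptide 110-148; 0% = full assay without inhibitor and 100% = GST in place of GST-Vif; retest series ran down from 100 µM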
# Calb FLC = C. albicans growth modulation with fluconazole. C. albicans CaCi-2 (fluconazole-resistant clinical isolate) + fluconazole, Alamar Blue growth, 48 h. growth inhibition, % (concentration not given with the values). hit rate 0.57% among 300,000. AID 1979;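 active = most replicates above 75%; inconclusive = exactly half above 75%; inactive = most below 75%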;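 also: all wells also contain fluconazole at 8 µg/ml as a sub-toxic cotreatment; 0% = median of DMSO wells and 100% = median of geldanamycin control wells; wells of about 8 µL received 7.5 nL stock; the first replicate is given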
# AF4-AF9 inh = blocks AF4 peptide binding to human AF9. P42568. AlphaScreen, biotin-AF4 peptide binding to FLAG-AF9. inhibition, % at 10 µM. hit rate 0.47% among 350,000. AID 651704;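 active = every replicate reaching a set inhibition limit, whatever the replicate mean, cut at about 25% in these data; inconclusive = mean inhibition reaches that limit but some replicates miss it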;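 also: 0% = plate neutral control median and 100% = total signal loss; the record names both 10 and 1 µM as test concentration; the first replicate is given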
# * hit, by the source's call; ? = inconclusive; · = not tested or not shown. No enrichment for hits; any-hit rate near 4.3%.
# Each structure is followed by: T cruzi inh	A1 inh	Beta apoptosis	LANA-H2A inh	RanGTP-Impb inh	Vif A3G	Calb FLC	AF4-AF9 inh
> CCc1nnc(NC(=O)c2ccc(C)o2)s1
  -23.9	1.7	1.7	-4.3	-0.5	1.6%	1.1	-2.0
> CSc1ccc(NC(=O)/C=C/C(=O)O)cc1
  -22.2	0.3	-4.4	-1.7	5.1	-1.4%	-37.9	·
> Cc1ccc(Cl)cc1N1CCN(C(=O)C2(S(=O)(=O)c3ccc(Cl)cc3)CC2)CC1
  33.7	0.0	-0.1	1.5	3.0	-1.7%	38.2	·
> COc1ccc(C(=O)Nc2ccccc2C(=O)O)cc1NC(=O)C(c1ccccc1)c1ccccc1
  47.7	-0.9	0.8	0.7	-0.6	6.8%	-1.7	-2.9
> O=C(CNC(=O)N1CC(=O)Nc2ccccc21)Nc1cc(Cl)ccc1Cl
  -12.0	0.3	2.6	-6.1	-1.0	·	-3.1	-3.4
> CCOC(=O)C1=C(N)OC2=C(C(=O)CC(C)(C)C2)C1C1CCCCC1 (stereo not drawn)
  4.6	0.9	-5.1	-0.9	1.3	-7.4%	3.8	·
> CC(C)[C@H](NC(=O)c1ccc(Cl)c([N+](=O)[O-])c1)C(=O)NCc1ccc(Cl)cc1Cl
  30.5	0.8	-3.9	-1.0	2.2	?	14.5	·
> Cc1nn(-c2ccccc2)c(N2CCCC2)c1/C=N/NC(=O)c1cc(-c2cccs2)nc2ccccc12
  17.6	1.0	5.9	-4.7	-0.8	-3.2%	10.8	3.3
> CC(C)C1Oc2ccccc2N(CC(=O)NC2CCCCC2)C1=O (stereo not drawn)
  15.5	0.3	-0.1	-0.2	22.7	·	3.8	0.0
> O=C(O)COc1ccc(Br)cc1CP(=O)(c1ccccc1)c1ccccc1
  -1.8	-0.6	-6.8	0.4	3.9	14.0%	-1.7	-10.7
> CCn1cc(C(=O)O)c(=O)c2cc(F)c(N3CCN(S(=O)(=O)c4ccc(NC(C)=O)cc4)CC3)cc21
  -1.6	0.9	-1.2	4.4	-0.6	15.7%	-0.5	9.9
> COc1ccc(C(=O)NC(=S)Nc2ccc(N3CCOCC3)cc2)cc1Cl
  -12.1	1.0	-7.2	0.9	0.0	·	-3.3	7.1
> CC(=O)N(Cc1cccnc1)c1cccc(-c2nc3ccccc3s2)c1
  59.4*	0.1	-1.5	-6.7	-0.4	-9.7%	19.0	-1.0
> C[C@@H](C(=O)Nc1nc(-c2ccccn2)cs1)N1C(=O)C2CCCCC2C1=O (stereo partly drawn)
  -1.4	-2.5	-9.8	-1.4	7.3	1.0%	0.7	·
> COCCNC(=S)N1CCCC(CO)C1 (stereo not drawn)
  -19.2	0.0	2.4	-2.2	1.1	?	-12.0	-2.1
> CC(=O)Nc1ccc(S(=O)(=O)N(C)c2ccccc2)cc1
  7.1	-0.2	3.5	-3.9	4.5	-0.3%	6.6	·
> O=C(Nc1ccc2c(c1)OCO2)[C@@H]1CCCN1S(=O)(=O)c1cccc2cccnc12
  ·	-0.3	1.9	0.0	·	·	·	-0.5
> CCC(=O)NC(=S)Nc1ccc(NC(=O)c2ccccc2[N+](=O)[O-])cc1
  6.1	0.9	1.2	0.4	3.0	·	-4.7	-1.5
> CCN(CC)CCn1c(NCc2ccc(OC)cc2)nc2ccccc21
  10.1	-0.9	5.6	3.4	-2.7	2.3%	-1.6	·
> O=S(=O)(c1c(F)cccc1F)N1CCCC2CCCCC21 (stereo not drawn)
  ·	-1.3	-6.3	-0.5	·	-5.9%	·	-5.4
> CN(C)c1ccc(CN(C(=O)c2cc3ccccc3oc2=O)C2CCS(=O)(=O)C2)cc1 (stereo not drawn)
  -15.8	-0.9	-16.5	-3.5	-1.3	·	-2.5	-2.8
> Cc1nn(-c2ccccc2)c(N)c1C(c1ccccc1)c1c(C)nn(-c2ccccc2)c1N
  15.0	0.2	-12.4	-0.4	1.8	-1.7%	5.2	·
> NC(=O)[C@@H]1CCCN1Cc1nc(-c2cccs2)no1
  -6.9	0.6	-2.8	1.4	-2.1	0.3%	23.1	-1.5
> CCCn1c(O)c(N=NC(=O)CNC(=O)c2cccnc2)c2ccccc21
  -3.0	-0.6	0.3	-5.6	-0.8	·	·	1.6
> CC(=O)Nc1ccc(S(=O)(=O)N2CCN(C(=O)C3COc4ccccc4O3)CC2)cc1 (stereo not drawn)
  -0.8	0.2	1.1	-1.4	1.3	0.6%	-0.8	-4.6
> CC(=O)N(CCc1ccccc1C)Cc1cc2ccc(C)cc2[nH]c1=O
  7.7	-0.9	-4.5	-4.1	-1.8	1.2%	8.4	-2.7
> CN(CCOc1ccccc1)c1ccc(S(=O)(=O)N2CCCCC2)cn1
  14.9	-0.8	7.6	-6.2	-1.1	0.3%	-4.1	·
> CN(CC(=O)NCc1ccccc1)Cc1ccc(Cl)cc1
  2.2	-1.1	-9.9	-2.5	7.0	-13.3%	-1.1	-1.9
> Cn1c(=NC(=O)C2=NNC(=O)CC2)sc2ccccc21
  -2.8	-0.9	-8.2	15.4*	1.2	1.6%	6.8	-0.8
> Cc1ccccc1CSCCNC(=O)Nc1ccccc1
  19.1	0.2	4.9	-4.3	0.4	-8.0%	-11.5	-0.4
> CC(NC(=O)c1ccco1)C(c1cccs1)N1CCN(c2ccccc2)CC1 (stereo not drawn)
  -4.1	-0.2	-2.1	2.8	0.1	1.4%	-9.3	0.8
> CC(=O)c1ccc(N2CCN(C(=O)c3ccc(Cl)c(NC4=NC5CS(=O)(=O)CC5S4)c3)CC2)cc1 (stereo not drawn)
  -11.6	0.3	-7.2	1.6	-1.0	·	-6.1	-0.6
> O=C(Nc1ccc2c3c(cccc13)CC2)c1ccc(Br)o1
  -19.6	-0.6	0.5	-1.6	4.2	-3.3%	-3.6	·
> CN(C)S(=O)(=O)c1ccc2c(c1)Cc1cc(S(=O)(=O)N(C)C)ccc1-2
  1.6	0.3	2.4	-1.8	?	-18.5%	-6.4	-5.6
> O=c1cc(Cc2nnc(SCc3ccccc3)n2-c2ccc(Cl)cc2)[nH]c(=O)[nH]1
  -6.1	0.3	2.6	0.3	-1.9	·	6.9	0.5
> O=C(COC(=O)c1ccccc1C(=O)N1CCN(c2ccccc2)CC1)Nc1ccc(F)cc1
  5.5	0.2	-7.5	-0.9	-3.8	?	-2.8	·
> O=C(O)c1ccc(-c2nc(-c3ccccc3)c(-c3cccs3)[nH]2)cc1
  -10.8	0.0	-3.0	2.7	-24.6	-16.4%	-5.0	-9.9
> Clc1ccc(-c2noc(CN3CCN(c4ccccc4)CC3)n2)cc1
  2.7	-0.1	-8.5	9.8	2.3	?	-7.7	·
> CCOc1ccc(NC(=O)CCc2c(C)noc2C)cc1OC
  ·	0.3	-2.5	-1.0	·	·	·	-2.0
> COc1ccccc1-c1nnc2sc(C3CCCCC3)nn12
  ·	1.1	-5.6	-1.9	·	-3.7%	·	·
> CCOc1ccc(NC(=O)C(NC(=O)C2CCC(C)CC2)C(C)C)cc1 (stereo not drawn)
  -8.7	0.9	0.5	-8.4	-2.9	-0.4%	-10.6	·
> CCN(CC)S(=O)(=O)c1ccc(N2CCOCC2)c(NC(=O)c2ccc3c(c2)OCCO3)c1
  6.0	0.8	1.2	2.7	·	-6.0%	0.7	0.8
> CC(Oc1cccc(Br)c1)C(=O)NNC(=O)CCS(=O)(=O)c1ccccc1 (stereo not drawn)
  ·	0.3	2.7	3.9	·	·	·	-4.0
> CCOC(=O)C1CCN(C(=O)C2(NC(=O)Nc3ccccc3C)CCCCC2)CC1
  -6.3	-3.8	·	-0.7	-0.6	·	-2.3	3.6
> O=C(O)C1CCC(N2C(=O)C3C4CCC(C4)C3C2=O)CC1 (stereo not drawn)
  -10.0	0.6	1.8	-0.2	9.5	-8.0%	-9.8	-2.1
> O=C(NCc1ccccc1)C1=C[C@H](c2csc3ccccc23)C[C@H](OCc2ccc(CO)cc2)O1
  41.9	?	23.6	1.1	-4.4	·	-6.6	-0.2
> CCOc1ccccc1Nc1nnc(SC(C)C(=O)Nc2nc(-c3ccccc3)cs2)s1 (stereo not drawn)
  8.9	-0.2	5.3	-0.4	2.9	-9.5%	-6.6	·
> CCOC(=O)N1CCC(NC(=O)c2cnn3c(C(F)(F)F)cc(-c4cccc(OC)c4)nc23)CC1
  3.3	-0.3	·	-0.5	1.3	·	-3.4	-0.4
> COc1ccc(CC(CC(=O)O)C(=O)NCc2ccccc2)cc1 (stereo not drawn)
  -5.0	3.0	-2.4	-2.2	0.1	3.3%	-5.7	-1.5
> CCOc1ccc(C(C)=O)cc1COC(=O)CNC(=O)c1cccs1
  -5.0	0.2	-2.3	-2.3	0.0	4.0%	-16.4	2.5
> Cn1c2ccccc2c2cc(/C=C(\NC(=O)c3ccccc3)C(=O)O)ccc21
  -8.4	2.1	-1.6	-55.9	-0.9	16.0%	17.1	-4.6
> c1coc(CNc2nc(-c3cccs3)cs2)c1
  1.1	-0.7	1.1	2.7	2.1	>100µM*	-2.1	6.4
> COCCn1c(C)cc(C(=O)COC(=O)c2ccc([N+](=O)[O-])o2)c1C
  3.1	0.3	-1.1	4.0	5.1	7.0%	-21.1	2.8
> O=C(CCn1c(=S)[nH]c2ccccc2c1=O)NCCc1ccccc1
  -0.1	0.5	4.4	-8.3	·	-9.4%	·	-2.8
> COc1cc(/C=N/NC(N)=O)cc([N+](=O)[O-])c1O
  -13.8	-0.7	6.3	2.4	0.0	·	1.4	-14.5
> CS(=O)(=O)N1CCN(c2ccccc2NC(=S)NC(=O)c2ccco2)CC1
  6.9	-0.5	-10.4	-4.1	-1.3	·	28.3	2.0
> Cc1ccc(C(=O)OCC(=O)N2C(C)CCCC2C)s1 (stereo not drawn)
  ·	0.4	-2.7	-0.8	·	7.0%	·	1.2
> O=[N+]([O-])c1ccc2[nH]c(O)c(N=Nc3ccc(F)cc3)c2c1
  8.0	0.8	2.9	-2.6	8.2	4.1%	-3.9	0.1
> COc1ccc(OC(=O)COc2ccc(Cl)cc2)cc1
  -8.2	-0.7	-0.9	-7.6	-1.3	·	38.7	0.0
> CCCN(CC1CC1)C(=O)CCc1nnc(C(OC)c2ccccc2)o1 (stereo not drawn)
  1.1	1.0	-10.2	2.4	0.0	-0.1%	-10.8	-0.8

# Further entries follow:
# Each structure is followed by: T cruzi inh	A1 inh	Beta apoptosis	LANA-H2A inh	RanGTP-Impb inh	Vif A3G	Calb FLC	AF4-AF9 inh
> CC(C)C(=O)NC(=S)Nc1ccc(S(=O)(=O)N2CCN(C)CC2)cc1
  5.1	0.2	-2.7	3.6	3.6	29.8%	-2.0	·
> CC(c1ccccc1)n1c(Cn2ncc3ccccc3c2=O)n[nH]c1=S (stereo not drawn)
  -7.5	-0.6	1.5	-0.6	0.2	-6.1%	16.5	-10.4
> Cn1c(Sc2ccc(C(=O)O)cc2[N+](=O)[O-])nnc1-c1ccccc1
  -4.3	-0.6	-2.6	7.2	-0.8	-5.2%	-7.1	1.6
> Cc1cc(N2CCN(C)CC2)nc(=S)[nH]1
  -15.7	-0.6	-3.4	2.3	-1.4	2.5%	15.9	-6.8
